# Compound activity deposited in PubChem BioAssay by National Center for Advancing Translational Sciences (NCATS).
# AID923 = qHTS Assay for Allosteric/Competitive Inhibitors of Caspase-1: Spectroscopic Profiling in AFC Spectral Region | 75,000 tested, 1.1% active | compound fluorescence, AFC spectral region (405/520 nm); almost no hit is shown here | Potency, µM (highest dose often 57.5 µM), inactives show at the highest dose fluorescence increase, usual class: activators; active means well fitted activation curve with a large enough effect; inconclusive means small, poorly fitted or top-dose-only effect;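 further: potency means the concentration at half of the fitted maximal effect; 0% is about no effect; scaled to a free AFC standard on each plate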
#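 Baseline compound fluorescence (AFC region, 405 nm ex/520 nm em) taken from the intercept of kinetic reads with 50 nM caspase-1 and 5 uM Ac-WEHD-AFC; normalized to an on-plate AFC standard curve; compounds titrated up to 57 uM.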
# A647 autofl = qHTS Assay for Spectroscopic Profiling in A647 Spectral Region. Compound fluorescence, A647 channel (570/671 nm), Tris buffer. max dye-equivalent concentration, M. 59,000 tested, under 10 active. AID 592, 2007; active means above 1 µM dye equivalent; inconclusive means 0.1 to 1 µM; inactive means 0.1 µM or less;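 further: values scaled relative to a standard on each plate; highest value over a series up to 38 µM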
#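 Buffer was dispensed, compounds and Alexa 647 standards were pin-transferred, and plates sat 15 min at room temperature. Intensity at 570/671 nm was then converted to dye-equivalent concentration using the plate's A647 standard curve.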
# A488 fluor = qHTS Assay for Spectroscopic Profiling in A488 Spectral Region. AID 591, 2007. 59,000 tested, 0.1% active. compound autofluorescence, A488 spectral region, dye equivalency; hits give high values. max dye equivalency, M; active = above 10 nM dye equivalent; inconclusive = 1 to 10 nM; inactive = 1 nM or less; about half of its hits are not listed in these tables;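 further: highest value over a series up to 38 µM; compound alone in buffer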
#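 Compound autofluorescence was read in 100 mM Tris pH 8.0 after 15 min at room temperature, ex 480 nm/em 540 nm. Intensities were converted to A488 dye-equivalent concentration using an on-plate six-point A488 standard curve.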
# TSHR ag = qHTS Assay for Agonists of the Thyroid Stimulating Hormone Receptor | HEK293-CNG-TSHR cells (CNG channel as cAMP sensor), membrane potential dye, cAMP | Potency, µM (titrated, usually from 57.1 µM), without a hit: top-dose activation, actives largely listed as activators | Thyrotropin receptor (Homo sapiens), P16473 | 73,000 tested, 0.48% active; active = well fitted activation curve of enough size with the parental cells flat; inconclusive = any curve in the parental cells; inactive = parental cells flat and receptor cells flat or falling; further: potency means the concentration at half of the fitted maximal effect; % of control where 0% means no effect; weak receptor curves with flat parental cells got no call and are not listed
# Target sequence (P16473 whole entry, looked up): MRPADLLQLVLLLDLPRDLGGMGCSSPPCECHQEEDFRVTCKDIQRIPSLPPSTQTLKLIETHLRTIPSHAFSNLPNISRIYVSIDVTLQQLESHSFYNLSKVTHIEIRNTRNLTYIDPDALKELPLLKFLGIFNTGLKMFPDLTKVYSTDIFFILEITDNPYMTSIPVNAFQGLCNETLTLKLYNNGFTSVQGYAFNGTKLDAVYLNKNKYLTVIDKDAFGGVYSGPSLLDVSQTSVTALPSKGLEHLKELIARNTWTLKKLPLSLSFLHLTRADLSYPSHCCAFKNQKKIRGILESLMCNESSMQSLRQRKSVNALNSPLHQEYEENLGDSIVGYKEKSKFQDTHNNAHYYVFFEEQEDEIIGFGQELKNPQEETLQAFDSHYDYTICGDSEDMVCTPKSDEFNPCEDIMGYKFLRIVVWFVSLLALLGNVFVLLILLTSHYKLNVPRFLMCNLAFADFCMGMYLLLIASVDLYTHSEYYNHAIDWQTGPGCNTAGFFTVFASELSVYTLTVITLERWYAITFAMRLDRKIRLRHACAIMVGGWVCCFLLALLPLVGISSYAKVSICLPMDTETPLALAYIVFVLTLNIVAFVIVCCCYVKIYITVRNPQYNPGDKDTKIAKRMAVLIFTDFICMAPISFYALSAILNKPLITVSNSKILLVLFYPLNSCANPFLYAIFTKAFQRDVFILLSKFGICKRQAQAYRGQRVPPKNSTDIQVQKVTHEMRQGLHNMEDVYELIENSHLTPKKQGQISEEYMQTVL
#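 HEK 293 cells stably expressing TSHR and a modified CNG channel, with CNG-only parental cells as counterscreen, were preloaded 60 min at room temperature with membrane potential dye containing 100 uM RO 20-1724. Compound exposure was 30 min, and depolarization was read as fluorescence at 590 nm.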
# Resorufin autofl = qHTS Assay for Spectroscopic Profiling in Resorufin Spectral Region | Compound fluorescence, resorufin region 547/598 nm, buffer; hits give high values | max dye-equivalent concentration, M | 59,000 tested, 0.04% active | AID 588, 2007; active = above 10 nM dye equivalent; inconclusive = 1 to 10 nM; inactive = 1 nM or less; a few of its hits are not listed in these tables; further: highest value over a series up to 38 µM
#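 Read-out: intrinsic compound fluorescence at ex 547/em 598 nm after 15 min at RT in pH 8.0 Tris (100 mM). Values expressed as resorufin-equivalent concentration from per-plate standard series.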
# Starred values were filed as active, the others as inactive; i = inactive; ? = inconclusive; / = no result given; & = joins results of further samples; [ ] = another dose, or the depositor's remark. These rows are one share of the data. The share of hits here may be higher or lower than overall.
canonical_smiles	AID923	A647 autofl	A488 fluor	TSHR ag	Resorufin autofl
COc1ccc(Cn2nnc(C(=O)Nc3ccc(F)cc3)c2N)cc1	0.4%	3.7e-09	i	-5%	i
Cc1ccc(S(=O)(=O)N[C@@H](Cc2ccccc2)C(=O)CCl)cc1	3.9%	4.2e-09	i	/	i
CCOc1ccc(NC(=O)NCCN2C(C)CCCC2C)cc1 (stereo not drawn)	2.1%	1e-09	i	5%	i
Clc1cnccn1	-1.9%[25.7 µM]	9.7e-09	i	-10%[25.6 µM]	i
CCOC(=O)c1ccc(N2C(=O)CC(N3CCC(C(=O)OCC)CC3)C2=O)cc1 (stereo not drawn)	-1.4%	/	/	2%	/
Cc1[nH]n(CCC#N)c(=O)c1CC(=O)N1CCN(c2ccccc2)CC1	-0.6%	5.6e-09	i	-1%	i
O=C(NC(Nc1ncccn1)C(=O)c1ccccc1)c1ccccc1 (stereo not drawn)	2.0%	/	/	3%	/
Cc1ccc(C)c(OCCCC(C)(C)C(=O)O)c1	-2.8%	3.6e-08&1.7e-09	i	?	i
N/N=C1/CC(=O)NC(=O)N1	15%[11.5 µM]	7.2e-09	i	-1%[11.4 µM]	i
CCOC(=O)c1nn(-c2ccccc2)c(=O)c(C#N)c1C	0.9%	1.3e-08	i	-5%	i
CCC(=O)Nc1ccc(C(=O)CSc2nnc(-c3cccnc3)o2)cc1	0.3%	1e-09	i	-5%	i
O=C(NCCc1csc(-c2cccnc2)n1)c1cccs1	-1.7%	/	/	?	/
O=c1[nH]n(-c2cccc3cccnc23)c(=O)c2ccccc12	-0.6%	1.4e-08	i	-21%	i
Cc1nc2c(C(=O)NCc3ccc(F)cc3)c[nH]n2c(=O)c1Cl	-2.8%	5.7e-09	i	11%	i
CC1(C)Cc2c(C#N)c(OCC(=O)c3ccccc3)nc(-c3ccoc3)c2CO1	/	2.3e-08	i	/	i
CC1(C)CC(=O)C(C=Nc2ccc(Cl)cn2)=C(O)C1	/	2e-08	i	/	i
CCN(CC)CCNC(=O)c1cc(S(C)(=O)=O)ccc1OC	1.2%	4.7e-08&1.2e-08&9e-09	i	?	i
Cc1cc2oc(=O)cc(CN3CCC(C)CC3)c2c(C)c1Cl	-2.6%	9e-09	i	?	i
CC(C)(C)c1cc(Br)c(O)c(CN(Cc2cc(C(C)(C)C)cc(Br)c2O)C2CCCCC2)c1	-2.7%[11.5 µM]	1.7e-08	i	?	i
COc1ccc(NC(=O)Cn2nnc(-c3ccc(CN4CCOCC4)cc3)n2)c(OC)c1	2.2%	1.2e-09	i	1%	i

# New compounds follow
canonical_smiles	AID923	A647 autofl	A488 fluor	TSHR ag	Resorufin autofl
Cc1cn([C@H]2C=C[C@H](CO)O2)c(=O)[nH]c1=O	/	4.6e-09	i	2%	i
Cc1ccc(S(=O)(=O)N2CCC(C(=O)N[C@H](C(=O)NCC3CCCO3)C(C)C)CC2)cc1 (stereo partly drawn)	0.5%	1.5e-08	i	/	i
CC(C)(C)n1nc2c(c1NC(=O)c1ccc(S(=O)(=O)N3CCCCC3)cc1)CS(=O)C2 (stereo not drawn)	0.6%	2e-08	i	1%	i
COCCNC(=O)COc1ccc(C)c(C)c1	0.4%	/	/	0%[11.4 µM]	/
Cc1nc2c(C)cccn2c1/C(O)=C1\C(=O)C(=O)N(CCN(C)C)C1c1ccncc1 (stereo not drawn)	-0.9%	1e-09	i	7%	i
Cc1cc(NS(=O)(=O)c2ccc(NC(=O)CCCOc3ccccc3)cc2)no1	-1.2%	1.8e-08	i	0%[11.4 µM]	i
CCOC(=O)c1ccc(NC(=O)N2CCN(S(C)(=O)=O)CC2)cc1	0.3%	1e-09	i	-1%	i
O=C(CN1C(=O)c2ccccc2C1=O)Nc1ccc(S(=O)(=O)NCC2CCCO2)cc1 (stereo not drawn)	-0.5%	1.6e-08	i	-22%	i
CC(NS(=O)(=O)c1ccc(F)cc1)C(=O)NCc1ccncc1 (stereo not drawn)	-1.8%	4.1e-08	i	14%	i
Cc1nc(-c2cnn(-c3ccccc3)c2)c2cc(C)oc2n1	1.3%	2.3e-08	i	8%	i
Clc1ccc(OCc2nc(-c3ccncc3)no2)c(Cl)c1	-1.2%	1.1e-08	i	?	i
O=P(O)(O)c1ccccc1OCCOCCOc1ccccc1P(=O)(O)O	0.1%	1.8e-08	i	0%	i
CCN(CC)C(=O)CSc1nnc(-c2ccc(S(=O)(=O)NCc3ccccc3Cl)cc2)o1	-2.0%	7.1e-09	i	11%	i
Cc1cccc(-c2noc(CCC(=O)Nc3ccccc3)n2)c1	0.5%	2.2e-08	i	4%	i
Cc1c(C(=O)OC(C)C)[nH]c2c1C(=O)CC(C)(C)C2	1.2%	3.4e-08	i	11%	i
COc1ccc(OCC(=O)N2CCN(C(=O)c3cccs3)CC2)cc1	2.0%	2.3e-08	i	4%	i
N#Cc1ccc(Cn2c(=O)c(C#N)c3n(c2=O)CCC3)cc1	2.0%	2.9e-09	i	2%	i
COC(=O)c1ccc(Cn2cnc3c(cnn3-c3ccc(F)cc3)c2=O)o1	-1.4%	1.1e-08	i	?	i
CCOC(=O)N1CCN(c2nc(SC)nc3sc4c(c23)CC(C)(C)OC4)CC1	-0.9%	1e-09	i	17%	i
O=C(O)CCC(=O)N1CCc2cc(S(=O)(=O)N3CCCCC3)ccc21	0.1%	3.3e-08	i	-1%	i

# Next results.
canonical_smiles	AID923	A647 autofl	A488 fluor	TSHR ag	Resorufin autofl
CCc1ccc(NC(=O)CS(=O)CC(=O)Nc2ccc(F)cc2F)cc1 (stereo not drawn)	0.0%	2.5e-08	i	-5%	i
COCC(=O)N1CCC2(CCCN(C(=O)Nc3cccc(F)c3)C2)CC1	-1.4%	1.2e-08	i	/	i
COc1ccc(N(C)S(=O)(=O)c2c(C)[nH]c(=O)[nH]c2=O)c(OC)c1	1.3%	1e-09	i	-5%	i
CCC(C)c1ccc(NC(=O)C2CC2)cc1 (stereo not drawn)	-0.7%	/	/	-4%	/
O=C(Cn1nnc(-c2ccc(CN3CCOCC3)cc2)n1)NC1CCCCC1	-0.8%	4.4e-08	i	-4%	i
COc1ccc(COC(=O)N/N=C2/C[C@@H](O)[C@@H](O)[C@@H]3[C@@H]4C(=O)N(C(C)(C)C)C(=O)[C@H]4CC[C@@H]23)cc1	-2.5%[11.5 µM]	/	/	5%[11.4 µM]	/
COc1ccc(CCNC(=O)CN(C2CCCCC2)S(C)(=O)=O)cc1	-3.8%	5.5e-08	i	-2%	i
CCCOc1ccc(C(=O)N2CCCC2)cc1OC	-1.2%	3.2e-08	i	5%	i
O=C(Nc1ccc(F)cc1)c1ccc(S(=O)(=O)NCC2CCCO2)cc1 (stereo not drawn)	-1.1%	5e-08	i	?	i
CCCCSc1nc2c(cnn2-c2ccc(F)cc2)c(=O)[nH]1	-0.7%	/	/	5%	/
Cc1cc(Nc2ccccc2)n(-c2nc3ccccc3[nH]2)n1	0.6%	1e-09	i	/	i
Cc1ccc(C(=O)OC2CCOC2=O)cc1NC(=O)c1ccco1 (stereo not drawn)	0.6%	3.4e-08	i	4%	i
CCN(CC)CCNC(=O)C1CCC(=O)N1CCc1ccccc1 (stereo not drawn)	-0.5%	8e-09	i	0%	i
CCOC(=O)/C=C1\SCC(=O)N1CC(=O)Nc1ccc2c(c1)CCC2	-1.3%	2.6e-08	i	5%	i
CCN1C(=O)C2(C(C#N)=C(N)Oc3c2c(C)nn3-c2ccccc2)c2ccccc21 (stereo not drawn)	-0.6%	1.4e-08	i	6%	i
CC1CCN(C(=O)c2ccccc2NC(=O)c2cccc(S(=O)(=O)N3CCOCC3)c2)CC1	1.2%	2.6e-08	i	-3%	i
O=C(Nc1ccccc1C(=O)N1CCOCC1)C1CCC(=O)N1C1CCCC1 (stereo not drawn)	-0.7%	1.4e-08	i	3%	i
Cc1ccc(C2C3=C(CCCC3=O)Nc3nc(SCC(=O)NCc4ccco4)[nH]c(=O)c32)cc1 (stereo not drawn)	3.6%	1e-09	i	-5%	i
CC(OC(=O)c1ccc2ccccc2n1)C(=O)Nc1ccc(N2CCOCC2)cc1 (stereo not drawn)	-0.4%	2.8e-08	i	4%	i
CCOC(=O)N1CCC(NC(=O)c2cc(C(=O)Nc3ccc(OC)c(OC)c3)ccc2CO)CC1	0.5%	3.1e-09	i	0%	i

# Shown with each value named: entries from further up
O=C(Nc1ccccc1C(=O)N1CCOCC1)C1CCC(=O)N1C1CCCC1 (stereo not drawn)
  AID923: -0.7%
  A647 autofl: 1.4e-08
  A488 fluor: i
  TSHR ag: 3%
  Resorufin autofl: i
CCOC(=O)/C=C1\SCC(=O)N1CC(=O)Nc1ccc2c(c1)CCC2
  AID923: -1.3%
  A647 autofl: 2.6e-08
  A488 fluor: i
  TSHR ag: 5%
  Resorufin autofl: i
COc1ccc(COC(=O)N/N=C2/C[C@@H](O)[C@@H](O)[C@@H]3[C@@H]4C(=O)N(C(C)(C)C)C(=O)[C@H]4CC[C@@H]23)cc1
  AID923: -2.5%[11.5 µM]
  A647 autofl: /
  A488 fluor: /
  TSHR ag: 5%[11.4 µM]
  Resorufin autofl: /
CC(OC(=O)c1ccc2ccccc2n1)C(=O)Nc1ccc(N2CCOCC2)cc1 (stereo not drawn)
  AID923: -0.4%
  A647 autofl: 2.8e-08
  A488 fluor: i
  TSHR ag: 4%
  Resorufin autofl: i

# (listing goes on)
canonical_smiles	AID923	A647 autofl	A488 fluor	TSHR ag	Resorufin autofl
O=C(Nc1ccccc1C(F)(F)F)N1CCN(c2ccc3nnc(-c4ccc(F)cc4)n3n2)CC1	-1.3%	/	/	3%	/
O=C(NCCc1ccc(Cl)cc1)C1CCN(S(=O)(=O)N2CCCC2)CC1	1.6%	1e-09	i	0%	i
CCOC(=O)C1=C(N)n2c(s/c(=C\c3cccnc3)c2=O)=C(C(=O)OC)C1c1cccnc1 (stereo not drawn)	/	9.4e-08	i	/	i
Cc1cc(=O)oc2c1c(C)nn2-c1ccc(C(=O)OC(C)C)cc1	3.4%	/	/	1%	/
OC(COCC1COc2ccccc2O1)CN1CCN(c2ccccn2)CC1 (stereo not drawn)	1.5%	4.3e-08	i	8%	i
CCOC(=O)c1c(NC(=O)c2cccs2)sc2c1CCCC2	-0.3%	/	/	4%	/
CN(C)c1ccc(CN(C(=O)COc2ccccc2)C2CCS(=O)(=O)C2)cc1 (stereo not drawn)	-0.2%	3.9e-08	i	-1%	i
CC(C)CCn1c(Cl)nc2c1c(=O)n(C)c(=O)n2C	0.5%	9.7e-09	i	4%	i
Nc1ccn([C@@H]2CC[C@H](CO)O2)c(=O)n1	2.7%[25.7 µM]	2.7e-08	i	-10%[25.6 µM]	i
Brc1ccc(-c2nn3c(Cc4ccccc4)nnc3s2)o1	-2.0%	1e-09	i	?	i
CCCNC(=O)Cn1cnc2sc(C(=O)N3CCCC(C(=O)OCC)C3)c(C)c2c1=O (stereo not drawn)	1.1%	1e-09	i	?	i
COc1ccc2c(c1)OC(O)(C(F)F)CC2=O (stereo not drawn)	1.2%	/	/	10%	/
Cc1ccc(-n2nnc3c(=O)n(CC(=O)NCc4ccco4)cnc32)cc1	-2.6%	/	/	-2%	/
Cc1ccc(C2C3CN(C(C)C)CC=C3C(C#N)=C(N)C2(C#N)C#N)cc1 (stereo not drawn)	/	6.2e-08	?	/	i
O=C(CC12CC3CC(C1)CC(CC(=O)NC1=NCCS1)(C3)C2)NC1=NCCS1	0.0%	3.9e-08	i	?	i
Cc1ccc(S(=O)(=O)NCCNC(=O)CN2CCCC2)cc1	0.3%	7.7e-09	i	-1%	i

# Quoted from the listing.
# Under TSHR ag, Cc1ccc(S(=O)(=O)NCCNC(=O)CN2CCCC2)cc1 shows -1%
# Under AID923, Cc1ccc(-n2nnc3c(=O)n(CC(=O)NCc4ccco4)cnc32)cc1 shows -2.6%
